# Mtb MbtI inh – inhibitors of Mycobacterium tuberculosis siderophore enzyme MbtI. purified MbtI enzyme, fluorescence intensity read-out. AID 493033. P9WFX0. inhibition, %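 (about 17 µg/mL by stock and volumes)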. 100,000 compounds, 0.89% hits;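 active means above 50% in both replicates, above 80% if mildly self-fluorescent; inactive means the rest, strongly fluorescent compounds included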;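 further: 0% = mean of negative and 100% = mean of positive controls; one replicate is shown; some compounds called inactive have numbers as strong as hits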
# Target sequence (P9WFX0 whole entry, looked up): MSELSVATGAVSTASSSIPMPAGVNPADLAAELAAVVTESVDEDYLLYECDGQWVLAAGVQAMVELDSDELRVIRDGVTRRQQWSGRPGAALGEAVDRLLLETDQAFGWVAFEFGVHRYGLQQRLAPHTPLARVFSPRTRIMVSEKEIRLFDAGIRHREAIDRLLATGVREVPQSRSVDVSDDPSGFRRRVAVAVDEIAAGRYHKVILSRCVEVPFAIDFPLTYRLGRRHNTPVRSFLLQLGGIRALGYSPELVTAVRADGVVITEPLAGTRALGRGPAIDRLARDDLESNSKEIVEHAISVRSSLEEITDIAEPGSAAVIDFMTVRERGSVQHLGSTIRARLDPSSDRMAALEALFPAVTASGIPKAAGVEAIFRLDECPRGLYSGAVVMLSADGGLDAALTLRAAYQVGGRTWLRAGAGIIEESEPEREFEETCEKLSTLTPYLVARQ
# Mtb MenB inh – Mtb MenB enzyme inhibition | P9WNP5 | MenB enzyme assay, absorbance read-out; some hits fall short of the stated cut | inhibition, %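 (about 12 µg/mL by stock and volumes)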 | 100,000 compounds, 0.43% hits;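 active means mean of two replicates above 30%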;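 further: 0% = no compound and 100% = wells with inactive enzyme; the first replicate is given; strong numbers were not always called active; inactives centre near -10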
# Target sequence (P9WNP5 whole entry, looked up): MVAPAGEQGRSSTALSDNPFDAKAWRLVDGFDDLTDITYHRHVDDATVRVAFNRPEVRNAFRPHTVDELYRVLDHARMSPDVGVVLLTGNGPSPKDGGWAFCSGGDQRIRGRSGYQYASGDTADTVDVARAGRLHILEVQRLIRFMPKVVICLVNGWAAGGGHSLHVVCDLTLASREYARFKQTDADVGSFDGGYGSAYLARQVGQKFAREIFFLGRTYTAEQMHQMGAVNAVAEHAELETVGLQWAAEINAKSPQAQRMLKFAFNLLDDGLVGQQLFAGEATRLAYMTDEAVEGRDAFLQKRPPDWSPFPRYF
# PV pol inh – inhibitors of poliovirus RNA polymerase binding and polymerization | P03300 | poliovirus polymerase elongation, fluorescence polarization; hits give low values | % elongation, % (compound at 16.7 µg/mL) | 150,000 compounds, 0.66% hits; in the data active means % elongation below about 90%; further: some results filed as inactive read as strong as hits
# PV pol inh intensity – recorded beside PV pol inh, whose call it bears; % elongation; measured here: total intensity read-out; formula for this scale not given here;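 total fluorescence in place of polarization; lower means less elongation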
# * marks the source's active call; other numbers are inactive results; . = no result given; & = joins results of further samples.
Molecule	Mtb MbtI inh	Mtb MenB inh	PV pol inh	PV pol inh intensity
CCNC(=S)NC1CC2CCC1C2 (stereo not drawn)	2	-31	101	103
COc1ccc(CCNc2ncc3c(n2)c(=O)c(C#N)c2[nH]c4ccccc4c(=O)n23)cc1OC	7	-10	121	143
O=C(OCc1nc2ccccc2c2ccccc12)C1=COCCO1	4	-37	106	117
O=C1C(=Nc2cccnc2)c2ccccc2N1Cc1ccccc1	8	-19	107	103
COc1ccc(NC(=S)N(C(C)C)C2CCN(C(C)C)CC2)cc1	27	-26	99	101
CC(C)[C@H](NC(=O)c1ccccc1)C(=O)OCn1nnc2ccccc2c1=O	6	-14	103	105
O=C(COCc1cc(-c2ccco2)on1)NCC1CCCO1 (stereo not drawn)	0	-2	101	104
COC(=O)Cn1cc(C2C(C#N)=C(N)OC3=C2C(=O)CC(C)(C)C3)c2ccccc21 (stereo not drawn)	15	-33	100	102
COC(=O)C1=C(C)N(Cc2ccccc2)C(=O)/C1=C\c1cccc(Cl)c1	-6	-27	69	193
Cc1ccc(NC(=O)CNCC(C)(C)N2CCOCC2)c(Cl)c1	-5	6	.	.
Nc1nc2c(c(=O)[nH]1)N(C=O)C(CNc1ccc(C(=O)N[C@@H](CCC(=O)O)C(=O)O)cc1)CN2 (stereo partly drawn)	-8&-9	-1&-6	98&100	103&100
O=C(Nc1nncs1)c1ccc(F)cc1	-6	-30	102	104
CC(=O)NC(C(=O)NCc1ccc(C)cc1)C(C)C (stereo not drawn)	0	-4	103	103
c1ccc(CN2CN=C(Nc3nc4ccccc4o3)NC2)cc1	0	-4	104	100
C=CCNS(=O)(=O)/C=C/c1ccccc1	3	-19	105	100
Cc1cccc(N/C(N)=N/c2nc(C(F)(F)F)cc(=O)[nH]2)c1	-20	12	98	101
CCCc1c(C)nc(SCC(C)C)[nH]c1=O	4	-18	101	102
CCC(Sc1nc2ncccc2c(=O)n1-c1ccccc1)C(=O)Nc1ccc(OC)cc1 (stereo not drawn)	9	-20	101	105
O=C(NC1CC1)/C(=C/c1ccc[nH]1)NC(=O)c1ccccc1	37	6	103	102
Cc1cc(Cl)ccc1NS(=O)(=O)c1ccc2c(c1)[C@H]1C=CC[C@H]1[C@@H](c1ccccc1)N2	-15	-5	106	125
CC1(C)CC2(CC(c3ccccc3F)c3cc(Cl)c(O)cc3O2)NC(=S)N1 (stereo not drawn)	.	-22	108	101
Cc1ccc(C(=O)CSc2ncn[nH]2)cc1	27	0	101	101
O=C(NCN1CCN(c2ccccn2)CC1)c1cnccn1	-29	1	100	107
COc1ccc(C(=O)CSc2nnc(-c3cc4cc(Cl)ccc4o3)n2C)cc1	.	2	101	104
O=C(CCN1C(=O)/C(=C\c2cccs2)SC1=S)NC1=NCCS1	3	-132	100	99

# Record cards (already shown). Screens in order: Mtb MbtI inh	Mtb MenB inh	PV pol inh	PV pol inh intensity
# O=C(COCc1cc(-c2ccco2)on1)NCC1CCCO1 (stereo not drawn) in the list: 0	-2	101	104
# O=C(Nc1nncs1)c1ccc(F)cc1 in the list: -6	-30	102	104

# The listing continues.
Molecule	Mtb MbtI inh	Mtb MenB inh	PV pol inh	PV pol inh intensity
COc1cc(S(=O)(=O)Nc2ccc(NC(C)=O)cc2)ccc1F	-6	6	102	101
Cc1ccc(N2C(=O)/C(=C\c3ccc4c(c3)OCO4)N=C2SCC#N)cc1	5	6	114	143
NC(=O)C1CCN(C2CC(=O)N(Cc3ccc4c(c3)OCO4)C2=O)CC1 (stereo not drawn)	86*	-39	103	88
CC(C)(C)C(=O)CC1(O)C(=O)N(Cc2ccccc2)c2ccccc21 (stereo not drawn)	4	-26	100	101
Cc1ccc2nc(-c3ccccn3)[nH]c2c1	.	20	101	105
Cc1ccccc1Cn1c(=O)n(CCCCC(=O)NC2CCCC2)c(=O)c2ccccc21	9	-22	102	100
O=C(CN1C(=O)c2ccccc2S1(=O)=O)N1CCCC1c1ccc2c(c1)OCCCO2 (stereo not drawn)	-5	-16	103	96
CCN(CC)C(=O)c1cccc(OC)c1	.	-10	105	104
CC(=O)OC1=C(C(=O)c2ccccc2)N(C)S(=O)(=O)c2ccccc21	0	-38	102	108
c1ccc(CN=C2CCc3ccccc3N2)cc1	-4	.	102	103
CC[C@@H](C(=O)[C@@H](C)[C@@H](O)[C@H](C)[C@@H]1O[C@@H]([C@@H](CC)C(=O)O)CC[C@@H]1C)[C@H]1OC2(C=C[C@@H](O)[C@]3(CC[C@@](C)([C@H]4CC[C@](O)(CC)[C@H](C)O4)O3)O2)[C@H](C)C[C@@H]1C (stereo partly drawn)	-7	0	100	102
Cc1cc2c(=O)n(Cc3ccco3)c(SCC(=O)N3CCc4ccccc4C3)nc2s1	8	-34	102	99
CCOC(=O)c1c(C2CC2)csc1NC(=O)Cn1c(SC(C)C)nc2ccccc21	33	-9	99	101
Cc1cc(N)n2ncc(-c3ccccc3)c2n1	88	-32	102	99
CC(c1nnc(SCC(=O)Nc2sccc2C#N)n1-c1ccc(Cl)cc1)N(C)C (stereo not drawn)	11	-12	108	115
Cc1ccc(-c2ccc(O)cc2)cc1	-7	.	97	94
Cc1cc(=O)oc2n[nH]c(CSc3ccc(Cl)cc3)c12	-5	-8	106	109
CCc1ccc(/C=C2/C(=O)N(C3CCCCC3)C(=S)N2C)cc1	-4	-5	100	102
Cc1cc(C)c2c(c1)/C(=N\N=c1\sc3ccccc3n1C)C(=O)N2	-2	-29	106	114
O=C1/C(=C/N2CCCCC2)SC(=S)N1c1ccc(F)cc1	.	-38	109	128
COc1cccc(-n2cc(C(=O)N(CC(C)C)CC(C)C)c3ccccc3c2=O)c1	-4	-3	100	102
c1nc2ccc(Cc3ccc4nc[nH]c4c3)cc2[nH]1	11	-13	104	103
COc1ccc2[nH]c3c(=O)n(Cc4ccc(C(=O)NC5CC5)cc4)c(=S)[nH]c3c2c1	8	-21	100	104
O=C1/C(=C\c2ccco2)SC(=S)N1Cc1ccccc1	11	-137	105	107
CC(C)NC(=S)N/N=C/c1ccc2c(c1)OCCO2	8	-28	102	106

# Quoted from the entries so far (6 entries):
Molecule	Mtb MbtI inh	Mtb MenB inh	PV pol inh	PV pol inh intensity
Cc1ccc2nc(-c3ccccn3)[nH]c2c1	.	20	101	105
Cc1ccccc1Cn1c(=O)n(CCCCC(=O)NC2CCCC2)c(=O)c2ccccc21	9	-22	102	100
O=C(CN1C(=O)c2ccccc2S1(=O)=O)N1CCCC1c1ccc2c(c1)OCCCO2 (stereo not drawn)	-5	-16	103	96
CCN(CC)C(=O)c1cccc(OC)c1	.	-10	105	104
CC(=O)OC1=C(C(=O)c2ccccc2)N(C)S(=O)(=O)c2ccccc21	0	-38	102	108
c1ccc(CN=C2CCc3ccccc3N2)cc1	-4	.	102	103

# The list continues:
Molecule	Mtb MbtI inh	Mtb MenB inh	PV pol inh	PV pol inh intensity
O=C(COC(=O)CSc1cc(Cl)ccc1Cl)Nc1ccc(F)c(F)c1F	-14	.	97	100
CSc1nnc(C2CCCN2C(=O)N(c2ccccc2)c2ccccc2)n1C (stereo not drawn)	4	-12	102	102
CCN(CC)C(=O)c1cc2c(=O)n3cccc(C)c3nc2s1	58	-22	100	98
N=C(SC1CC(=O)N(c2ccc(C(=O)O)cc2)C1=O)N1N=C(c2ccccc2)CC1c1ccccc1 (stereo not drawn)	.	-21	100	106
COC(=O)c1ccc2c(=O)n3nc(NCC4CCCO4)sc3nc2c1 (stereo not drawn)	136	5	100	101
Cc1ccc(N(C)C(=O)n2nc(C)cc2C)cc1	4	-22	.	.
NC(=O)C1CCN(c2nc(C3CC3)nc3c2nnn3Cc2ccccc2Cl)CC1	7	52*	102	102
COc1ccc(-n2c(-c3ccco3)nc3ccccc3c2=O)cc1	-1	-2	100	103
Cc1c(C(=O)NCc2ccccc2)oc2ccc(S(=O)(=O)N(C)C3CCCCC3)cc12	-5	-15	101	101
CC1CN(C(=O)c2scc3c2OCCO3)CC(C)O1 (stereo not drawn)	.	-10	103	105
COc1ccc2c(c1)CCc1sc(NC(=O)c3cc(OC)c(OC)c(OC)c3)nc1-2	40	-34	101	102
O=c1[nH]c2ccccc2nc1N1CCOCC1	1	-7	102	95
O=C(Nc1ccc(-c2noc(COc3ccc(Br)cc3)n2)cc1)c1cccnc1	2	-13	101	101
COc1cccc2c(=O)c3c(cnn3C)n(C)c12	.	-54	92	82
CC(=O)Nc1ccc(Br)cc1	-6	-17	104	97
Cc1cc(C)n2nc(SCC(=O)N(C)Cc3ccccc3)nc2n1	5	10	103	111
Cc1cc(S(=O)(=O)N2CCOCC2)ccc1OCC(=O)O	-6	2	99	100
C=CCOC(=O)C1C(c2ccccc2)c2c([nH][nH]c2=O)CC1(C)O (stereo not drawn)	-6	4	102	103
Cc1ccc(-c2nc3ncccc3o2)cc1NC(=O)/C=C/c1ccc(Cl)cc1	-8	7	100	103
Nc1nc2ccccc2n1C(=O)c1ccccc1	90	14	101	102
CC1Cc2ccccc2N1C(=O)C1(S(=O)(=O)c2ccccc2)CCCC1 (stereo not drawn)	-2	.	102	100
NNc1ccc2[nH]c(=O)[nH]c2c1	.	-12	101	103
COc1ccc(N=Cc2sc3ccccc3c2O)cc1	3	-26	69	195
O=C(c1ccccc1)c1cn(Cc2ccc(F)cc2)c2ccccc12	-5	-11	103	104
COc1c(C(=O)O/N=C(\N)c2cccs2)csc1Cl	8	-12	102	100
CC(=O)Nc1ccc(S(=O)(=O)N2C(=O)c3cccc4cccc2c34)cc1	17	2	100	103
Cc1nnsc1C(=O)N/N=C/c1ccncc1	-242	-29	101	101
C=CCC1Cc2ccccc2C(CC=C)N1 (stereo not drawn)	-3	39*	100	103
ON=C1c2ccccc2-c2ccccc21	-12	-69	100	103
O=C1CSC(N2CCOCC2)=N1	-10	5	103	113
Cc1ccc(NC(=O)c2cc3c(=O)n(Cc4ccco4)ccc3nc2C)cc1	2	-9	100	102
O=C(OC1CCOC1=O)c1ccc(S(=O)(=O)N2CCCc3ccccc32)cc1 (stereo not drawn)	3	-33	99	100
COc1ccc(OC)c(NC(=O)c2oc3c(c2C)C(O)CC(C)(C)C3)c1 (stereo not drawn)	-36	-25	103	103
O=C(CSCC(=O)N1CCCC1)Nc1nc(-c2cccs2)cs1	4	-24	100	101
N#Cc1ccc(NC(=S)NC(=O)C2CC2)cc1	9	18	105	98
CCC(C)NC(=O)CSc1c2c(nc3ccccc13)CCCC2 (stereo not drawn)	0	3	101	107
C/C(=N\NC(=S)Nc1cccc(C)c1C)c1ccc(S(=O)(=O)NCc2ccco2)cc1	-3	-68	104	105
CC1(C)CC(=O)C/C(=N\NC(=S)Nc2ccc(S(=O)(=O)N3CCOCC3)cc2)C1	11	-94	46	242
c1ccc(-c2nn3c(CN4CCOCC4)nnc3c3ccccc23)cc1	-25	-37	101	102
CC(=O)Nc1ccc(-c2cn3cccc(C)c3n2)cc1	109	-10	105	108
O=C1OCCN1N=Cc1ccc([N+](=O)[O-])o1	10	-8	100	101
CCC1CCCCN1C(=O)CSc1nc2ccccc2s1 (stereo not drawn)	28	.	105	104
CC1CCCCN1S(=O)(=O)c1ccc(I)cc1 (stereo not drawn)	-12	-4	101	102
COc1ccc(Cl)cc1NC(=O)COC(C)=O	-2	.	101	103
Clc1ccc(-c2csc(=Nc3cccnc3)n2C2CC2)cc1	16	-12	100	101
CCCOc1cccc(C(=O)Nc2nnn(C)n2)c1	.	-7	106	107
O=C1CSC(=Nc2ccc(Cl)cc2)N1	-5	-30	106	118
CSc1nc(N)cc(=O)[nH]1	-21	-16	97	92
C=CCOc1ccccc1N	18	-6	101	101
Cc1ccc(-c2nnc(-n3cnc4cc(C)c(C)cc43)c3ccccc23)cc1	-5	-21	101	103

# 5 records drawn at random from the list so far, as already listed:
Molecule	Mtb MbtI inh	Mtb MenB inh	PV pol inh	PV pol inh intensity
N#Cc1ccc(NC(=S)NC(=O)C2CC2)cc1	9	18	105	98
CC(=O)Nc1ccc(-c2cn3cccc(C)c3n2)cc1	109	-10	105	108
CC(=O)Nc1ccc(S(=O)(=O)N2C(=O)c3cccc4cccc2c34)cc1	17	2	100	103
Cc1ccc(NC(=O)c2cc3c(=O)n(Cc4ccco4)ccc3nc2C)cc1	2	-9	100	102
O=C1CSC(=Nc2ccc(Cl)cc2)N1	-5	-30	106	118

# Further entries:
Molecule	Mtb MbtI inh	Mtb MenB inh	PV pol inh	PV pol inh intensity
N#CC1=C(N)Oc2c(ccc3ccccc23)C1c1ccsc1 (stereo not drawn)	.	-31	106	97
O=C(COC(=O)c1cccc(S(=O)(=O)N2CCCC2)c1)Nc1ccc2c(c1)OCCO2	1	-9	99	105
CCN(CC)C(=O)c1cnn(-c2ccccc2)c1-n1cccc1	3	6	100	100
NC(=O)c1ccccc1NC(=O)CC12CC3CC(CC(Br)(C3)C1)C2	-2	.	100	99
CCOC(=O)/C(C#N)=C/c1cn(CCC#N)nc1C	9	-17	105	109
N/C(=N\OC(=O)c1cnc2n(c1=O)CCS2)c1ccc(C(F)(F)F)cc1	3	-22	105	101
CCOC(=O)c1cc2occc2n1CC	15	-31	103	113
O=C(O)C(C(=O)/C=C/c1ccc2c(c1)OCO2)=C1SCCS1	.	-261	98	105
